Source: PubChem (several laboratories)
AF4-AF9 inh: blocks AF4 peptide binding to human AF9; P42568; 350,000 tested, 0.47% active; inhibition, % at 10 µM; AID 651704; AlphaScreen, biotin-AF4 peptide binding to FLAG-AF9;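 active = every replicate reaching a set inhibition limit, whatever the replicate mean, cut at about 25% in these data; inconclusive = mean inhibition reaches that limit but some replicates miss it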;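 also: 0% = plate neutral control median and 100% = total signal loss; the record names both 10 and 1 µM as test concentration; the first replicate is given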
Target sequence (P42568 whole entry, looked up): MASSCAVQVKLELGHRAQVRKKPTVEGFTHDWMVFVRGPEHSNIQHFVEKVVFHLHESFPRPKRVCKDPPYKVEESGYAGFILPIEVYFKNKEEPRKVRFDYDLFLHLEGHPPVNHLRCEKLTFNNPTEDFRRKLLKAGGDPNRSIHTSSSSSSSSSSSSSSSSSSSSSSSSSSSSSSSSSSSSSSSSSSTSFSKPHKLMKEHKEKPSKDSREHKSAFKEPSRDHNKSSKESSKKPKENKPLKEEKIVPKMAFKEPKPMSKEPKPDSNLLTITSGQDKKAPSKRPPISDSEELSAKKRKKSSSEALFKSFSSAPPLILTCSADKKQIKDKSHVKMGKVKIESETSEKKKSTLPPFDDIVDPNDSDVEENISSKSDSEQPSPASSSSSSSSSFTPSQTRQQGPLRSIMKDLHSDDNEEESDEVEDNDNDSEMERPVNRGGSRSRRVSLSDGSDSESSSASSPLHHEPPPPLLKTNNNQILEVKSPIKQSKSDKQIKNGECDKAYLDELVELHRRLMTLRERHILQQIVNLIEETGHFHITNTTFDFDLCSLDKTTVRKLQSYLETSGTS
A1 inh: inhibitors of the anti-apoptotic protein A1, read as caspase activation; MEF A1-2A-BIM cells, Caspase-Glo 3/7 luminescence, 3 h; percent of clofoctol response, vehicle zero; caspase activation, % (no concentration beside the values); 330,000 tested, 0.066% active; AID 2462;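 active = over half of replicate activation scores above 10%, or exactly half above 10 with the replicate mean above 10; inconclusive = replicate mean below 10 yet half the replicates above 10; inactive = over half of replicates below 10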;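 also: wells of about 30 µL received 50 nL stock; many hits fall short of the cut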
Ecoli rRNA inh: inhibitors of bacterial rRNA selective over humanized ribosomes; GFP signal change (wild-type ribosome), % (concentration not given with the values); 350,000 tested, 1.6% active; AID 720706; E. coli WT GFP vs humanized-ribosome RFP mutants, fluorescence, 24 h; hits give low values; DMSO median 0, no signal -100;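 active = significant combined selectivity score with lowered wild-type GFP, culture density cut under 30%, mutant RFP and density less affected; inactive = any of these conditions unmet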; also: one replicate is shown; some compounds called inactive have numbers as strong as hits
UCH37 inh: blocks the human deubiquitinase UCH37. Q9Y5K5. purified proteasome/UCH37, Ub-AMC cleavage fluorescence. inhibition, % (concentration not given with the values). 330,000 tested, 0.33% active. AID 588478;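 active = mean of two replicates above 20%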;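 also: 0% = compound-free wells with enzyme and 100% = wells lacking proteasome; stock transfer was 100 nL into about 20 µL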
Target sequence (Q9Y5K5 whole entry, looked up): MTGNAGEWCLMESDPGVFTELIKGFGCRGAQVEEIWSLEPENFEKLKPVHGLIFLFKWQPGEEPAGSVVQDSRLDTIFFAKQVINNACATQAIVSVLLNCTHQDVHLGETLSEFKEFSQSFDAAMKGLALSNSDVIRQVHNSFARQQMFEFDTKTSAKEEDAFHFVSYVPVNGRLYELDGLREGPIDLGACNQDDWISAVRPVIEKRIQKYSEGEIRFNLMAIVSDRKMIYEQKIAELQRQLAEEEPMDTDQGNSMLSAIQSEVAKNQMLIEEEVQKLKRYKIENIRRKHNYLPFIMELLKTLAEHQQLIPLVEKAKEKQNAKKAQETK
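Schedule: 30 min plus 25 min, room temperature / Material: human UCH37 within purified proteasomes / Technique: AMC fluorescence intensity at 355/460 nm / Buffer or medium: pH 7.4 Tris-HCl (50 mM) with ovalbumin, ATP-MgCl2, DTT / Controls: wells without proteasome as full block, compound-free enzyme plus substrate as uninhibited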
Beta apoptosis: beta cell apoptosis inhibition. INS-1E cytokine-induced death, ATP luminescence, 48 h; percent of positive-control rescue, neutral wells zero. protection from apoptosis, % (test concentration not listed). 300,000 tested, 0.8% active. AID 435005;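 active = all replicates at 75% or more, or half of them and the mean; inconclusive = half reach 75% but not the mean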;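 also: 0% = cytokine-treated negative control wells and 100% = positive control rescue; higher means more ATP so stronger rescue from cytokine killing; wells of about 40 µL received 100 nL stock; the first replicate is given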
Ecoli growth: E. coli growth inhibition; Escherichia coli growth, OD600, 23 h; hits give low values; OD600 absorbance (no concentration beside the values); AID 1053175; 330,000 tested, 0.21% active;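 active = OD600 absorbance below the run mean of sample wells minus 3.6 SD, in any replicate, cut at about 0.56 in these data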;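 also: stock transfer was 300 nL into about 60 µL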
T cruzi repl: blocks replication of Trypanosoma cruzi. T. cruzi beta-gal in NIH3T3, luminescence, 90 h. inhibition, % (no concentration beside the values). 300,000 tested, 1.4% active;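 active = mean inhibition across valid replicates above about 55%, limit read from the data; inconclusive = mean below that limit but half or more replicates reach it; inactive = mean below it, under half of replicates reach it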;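 also: signal also drops with host cell toxicity which is not excluded here; 0% = plate median of DMSO wells and 100% = zero luminescence signal; higher percent means less beta-gal luminescence so fewer parasites; stock transfer was 50 nL into about 50 µL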
FGF22 binding: binders of recombinant human FGF22 by thermal shift. Q9HCT0. SYPRO orange fluorescence; percent of sucrose octasulfate shift, DMSO zero. calls only at 9.99 µM. 340,000 tested, 1.5% active;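 active = melting point raised past a set limit in the mean and every replicate; inconclusive = no clear call; three in four hits are not shown here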
Target sequence (Q9HCT0 whole entry, looked up): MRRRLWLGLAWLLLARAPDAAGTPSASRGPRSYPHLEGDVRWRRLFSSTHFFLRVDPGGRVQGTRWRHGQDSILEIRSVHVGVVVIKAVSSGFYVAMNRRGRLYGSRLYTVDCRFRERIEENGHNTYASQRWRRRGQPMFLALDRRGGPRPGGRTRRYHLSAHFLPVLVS
Ecoli rRNA inh OD600: recorded beside Ecoli rRNA inh, whose call it bears; OD600 change, %; measured here: OD600 growth;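 optical density of the mix in the first replicate; 0 = DMSO median and -100 = no signal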
Ecoli rRNA inh RFP: further read-out of Ecoli rRNA inh, marked with its call; RFP signal change, %; measured here: RFP humanized mutant strains;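 first replicate; 0 = DMSO median and -100 = no signal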
* marks the source's active call; other numbers are inactive results; i = inactive; ? = inconclusive; / = not tested or not shown; & = joins results of further samples. An excerpt; count on the stated rates, not on these rows.

SMILES | AF4-AF9 inh | A1 inh | Ecoli rRNA inh | Ecoli rRNA inh OD600 | Ecoli rRNA inh RFP | UCH37 inh | Beta apoptosis | Ecoli growth | T cruzi repl | FGF22 binding
COc1ccc(-c2nc(Cn3c(SCc4cccc(F)c4)nc4ccncc43)c(C)o2)cc1OC | 7.8 | 0.3 | -4.9 | -1.4 | 15.1 | 7.4 | 21.4 | 0.725 | 18.4 | i
CCN1CCN(S(=O)(=O)c2ccc(Cl)c(C(=O)NC3CCCCC3)c2)CC1 | 0.4 | 0.0 | 3.0 | 3.7 | 0.2 | 4.1 | -16.1 | 0.722 | -14.7 | i
COc1cc(OC)cc(-c2c(C#Cc3ccsc3)c3cc(-c4ccc(OC)nc4)ccc3n2C)c1 | 0.9 | 0.1 | 2.0 | 3.3 | -7.8 | -44.6 | -2.8 | 0.74 | / | i
O=C(Nc1ccccc1C(F)(F)F)c1cc(-c2ccco2)on1 | -0.7 | -0.4 | 8.2 | 5.6 | 2.1 | 4.4 | -2.9 | 0.688 | 5.6 | i
CCCCN=C1NN=C(c2cc3ccccc3o2)CS1 | -6.8 | -0.8 | 6.9 | 0.3 | -0.8 | -3.5 | 0.0 | 0.663 | 1.8 | i
CC(OC(=O)CNC(=O)c1ccc(Br)cc1)C(=O)NC1CCCCC1C (centres undefined) | -4.0 | 0.9 | / | / | / | -0.6 | -2.8 | 0.665 | / | i
Cc1c(C(=O)OCC(=O)NCCc2ccc(S(N)(=O)=O)cc2)oc2ccccc12 | 0.1 | 1.2 | 2.7 | 1.8 | 0.3 | -0.1 | -1.1 | 0.687 | / | i
CCn1c(SCC(=O)Nc2ccc(C(C)=O)cc2)nc2ccccc21 | / | 0.8 | / | / | / | 6.2 | / | 0.743 | 4.0 | /
Cc1ccc(S(=O)(=O)N(CC(=O)N2CCC(C(N)=O)CC2)Cc2ccc(F)cc2)cc1 | / | 0.8 | / | / | / | 2.4 | / | 0.675 | 44.9 | /
CN(C)c1cc[n+](CC(=O)Nc2ccc(Oc3ccccc3)cc2)cc1 | / | 0.2 | -58.9 | -70.2 | 3.9 | 1.6 | 90.8* | 0.64 | 47.3 | /
O=C(Nc1nnc(C2=COCCO2)o1)c1cccc([N+](=O)[O-])c1 | -0.6 | -1.2 | 2.9 | 7.8 | -1.3 | 1.1 | / | 0.752 | -3.9 | i
COc1ccc2c(c1)-c1ccccc1S(=O)(=O)N(C)C2 | -5.9 | / | 3.2 | 3.9 | -2.8 | 1.2 | / | 0.695 | / | i

Arranged by length of the SMILES (low to high): part of the list above
SMILES | AF4-AF9 inh | A1 inh | Ecoli rRNA inh | Ecoli rRNA inh OD600 | Ecoli rRNA inh RFP | UCH37 inh | Beta apoptosis | Ecoli growth | T cruzi repl | FGF22 binding
O=C(Nc1nnc(C2=COCCO2)o1)c1cccc([N+](=O)[O-])c1 | -0.6 | -1.2 | 2.9 | 7.8 | -1.3 | 1.1 | / | 0.752 | -3.9 | i
Cc1c(C(=O)OCC(=O)NCCc2ccc(S(N)(=O)=O)cc2)oc2ccccc12 | 0.1 | 1.2 | 2.7 | 1.8 | 0.3 | -0.1 | -1.1 | 0.687 | / | i
COc1ccc(-c2nc(Cn3c(SCc4cccc(F)c4)nc4ccncc43)c(C)o2)cc1OC | 7.8 | 0.3 | -4.9 | -1.4 | 15.1 | 7.4 | 21.4 | 0.725 | 18.4 | i
Cc1ccc(S(=O)(=O)N(CC(=O)N2CCC(C(N)=O)CC2)Cc2ccc(F)cc2)cc1 | / | 0.8 | / | / | / | 2.4 | / | 0.675 | 44.9 | /

Additional structures
SMILES | AF4-AF9 inh | A1 inh | Ecoli rRNA inh | Ecoli rRNA inh OD600 | Ecoli rRNA inh RFP | UCH37 inh | Beta apoptosis | Ecoli growth | T cruzi repl | FGF22 binding
N#Cc1ccc(N/N=C/c2ccccc2)c([N+](=O)[O-])c1 | -2.2 | 0.3 | 6.8 | -7.8 | 0.0 | / | 1.5 | / | -15.4 | i
Cn1cnnc1SCC(=O)Nc1ccccc1C(=O)NC1CCCC1 | / | -0.6 | / | / | / | 4.0 | / | 0.694 | -7.9 | /
COc1ccc(NC(=O)c2ccc(CNc3c(NC4CCCCC4)c(=O)c3=O)cc2)cc1OC | 4.3&-12.3 | 0.9 | -0.8&9.4 | -10.8&12.1 | 3.6&2.9 | 0.4&3.8 | -5.5 | 0.675&0.78 | -10.4 | i
CN(C)S(=O)(=O)c1cccc(NC(=O)c2cc(-c3cccs3)nn2-c2ccccc2)c1 | / | 0.5 | / | / | / | -2.0 | 6.4 | 0.723 | 24.5 | /
CN(C)C1=NCC(CSC(=N)N)S1 (centres undefined) | -2.2 | 0.8 | -36.8* | -24.3* | -7.2* | 9.3 | -9.2 | 0.68 | -6.5 | i
O=C(COc1ccccc1Cl)NCCCNC(=O)c1cccnc1 | 0.0 | -0.3 | -1.5 | 1.6 | -0.4 | -0.8 | / | 0.663 | -2.4 | i
c1ccc(-c2nc(CSc3n[nH]c(-c4cccs4)n3)cs2)cc1 | / | 0.6 | / | / | / | 2.7 | 0.3 | 0.612 | -6.4 | /
CCOc1ccc(-c2noc(COC)n2)cc1OC | / | -0.7 | / | / | / | 2.7 | 0.6 | 0.706 | / | /
CC(c1ccccc1C(O)(c1ccccc1)c1ccccc1)N(C)C (centres undefined) | 2.5 | 1.0 | 2.3 | 3.3 | 2.0 | -0.1 | 0.5 | 0.697 | -0.9 | i
O=C(Nc1ccccn1)NC1CCCCC1 | / | -0.7 | / | / | / | 3.3 | -2.3 | 0.734 | -11.9 | /
CCOC(=O)C1(C)NC(c2ccc(N(C)C)cc2)C2C(=O)N(c3ccc(OC)cc3)C(=O)C21 (centres undefined) | / | 0.7 | / | / | / | 2.6 | 0.2 | 0.692 | -2.7 | /
Cc1c(C(=O)Nc2ccccc2)c2ccc(C(F)(F)F)cc2n1O | -1.0 | 0.3 | -47.9 | -67.6 | -12.5 | 5.0 | 0.1 | 0.623 | -11.0 | i
O=C(CNC(=O)c1ccccc1F)NCCCN1CCCC1=O | 0.4 | ? | 4.3 | 5.1 | 0.1 | 3.6 | -0.8 | 0.699 | -1.2 | i
O=C1CC(c2cc(Br)ccc2F)c2cc3c(cc2N1)CCC3 (centres undefined) | 3.6 | 0.1 | 14.8 | 6.0 | -7.3 | 1.5 | 40.2 | 0.71 | -10.2 | i
Cc1onc(-c2c(F)cccc2Cl)c1C(=O)Nc1sc2c(c1C#N)CCC(C(C)(C)C)C2 (centres undefined) | / | 0.1 | / | / | / | -17.1 | 56.0 | 0.737 | 53.1 | /
N#C/C(=N\Nc1ccc([N+](=O)[O-])cc1)C(=N)N1CCOCC1 | -0.8 | -0.4 | 3.4 | -4.0 | -4.4 | / | -4.7 | / | 1.1 | i
COc1cccc(-n2cnc3sc(-c4ccccc4)cc3c2=O)c1 | -43.3 | -1.8 | 7.2 | 2.5 | -4.9 | 0.1 | 1.7 | 0.686 | -4.6 | i
O=C(OCC1CC(c2ccccn2)=NO1)c1ccc(Br)cc1 (centres undefined) | -5.1 | -0.6 | 7.1 | -1.2 | -5.1 | 3.8 | -3.5 | 0.729 | -18.9 | i
CCOc1cc(/C=N/NC(=O)c2ccccc2OCc2ccc(F)cc2)ccc1O | 5.5 | -0.3 | -21.2* | -15.1* | 6.0* | / | 24.2 | / | / | i
O=C1NN(c2ccccc2)C(=O)/C1=C\c1coc2ccc(O)cc2c1=O | -31.2 | 0.4 | -0.5 | 11.4 | -0.4 | / | 0.1 | / | 14.0 | i
CNC(=O)C1CC(=O)N(c2ccc(OCC(=O)NCc3ccccc3)cc2)C1 (centres undefined) | -1.5 | -0.6 | 6.9 | 5.6 | -3.2 | 1.7 | 0.1 | 0.661 | -2.3 | i
O=C(O)CNS(=O)(=O)c1ccc2[nH]c(=O)c(=O)[nH]c2c1 | 2.2 | 0.4 | 8.2 | 8.4 | -0.7 | -11.2 | -0.4 | 0.7 | -12.0 | i
Cc1cccc(-c2c3c(=O)n(C)c(=O)n(C)c3cn2CC2CCCO2)c1 (centres undefined) | / | 0.2 | / | / | / | 3.6 | -10.3 | 0.678 | -6.0 | /
Cc1cc(C(=O)Nc2ccc(Cl)cc2)on1 | -12.6 | 1.1 | 15.7 | 14.1 | 0.0 | -2.9 | -2.3 | 0.685 | -14.5 | i
Oc1ccc(N2CCN(c3nnnn3-c3ccccc3)CC2)cc1 | -1.2 | 0.6 | -7.4 | -5.4 | -0.4 | 0.8 | 4.9 | 0.672 | -23.8 | i
Cc1ccc(S(=O)(=O)C2(C(=O)Nc3nccs3)CC2)cc1 | 1.6 | -1.2 | 11.3 | 10.7 | 2.3 | 5.1 | -2.3 | 0.719 | / | i
CCOC(=O)C1CCCN(S(=O)(=O)c2cc(Br)cc3c2N(C(C)=O)CC3)C1 (centres undefined) | -1.4 | 0.0 | -2.6 | -10.3 | -1.0 | 3.9 | -1.1 | 0.671 | 9.8 | /
CCNC(=S)N1CCN(CCN=CC2=C(O)CC(C)(C)CC2=O)CC1 | -1.6 | 0.7 | 10.0 | 0.2 | -7.1 | -0.1 | 0.8 | 0.659 | 8.8 | i
O=C1NC(=Nc2ccccc2)/C(=C/c2ccco2)S1 | 1.3 | -0.5 | -5.5 | 2.3 | 3.4 | 6.1 | 4.3 | 0.735 | 7.6 | i
O=C(Nc1ccccc1)NC1(C(=O)N2CCN(C(=O)c3ccco3)CC2)CCCCC1 | / | -0.8 | / | / | / | 3.6 | -9.4 | 0.698 | -1.1 | /
COc1ccc(-c2csc(NC(=O)c3cc(C)on3)c2C#N)cc1OC | / | -0.3 | / | / | / | -2.5 | -1.4 | 0.714 | -13.2 | /
COc1ccc2cc(C(N)=O)c(=Nc3ccc(C)cc3)oc2c1 | -0.3 | 0.5 | 31.5 | 35.0 | 4.4 | -5.9 | -2.5 | 0.715 | -4.3 | i
COc1ccc(C2CC(=O)c3c(O)cc(O)cc3O2)c(CC=C(C)C)c1OC (centres undefined) | -0.1 | -0.2 | -32.2 | -47.2 | -11.0 | 1.8 | 2.2 | 0.689 | -15.1 | i
OCc1ccccc1N=Cc1cccnc1 | -0.3 | -0.5 | 7.9 | 9.1 | -3.0 | 5.6 | -6.4 | 0.693 | -3.7 | i
CC(C)C(=O)Nc1cc(S(=O)(=O)N2CCOCC2)ccc1N1CCCCC1 | -1.4 | 3.7 | -2.5 | -17.0 | -0.9 | 3.9 | -3.9 | 0.7 | / | i
O=C(c1cc(-c2ccccc2)on1)N1CCN(c2ccccc2)CC1 | -0.6 | -0.6 | 0.3 | 7.6 | -1.1 | -0.1 | -1.5 | 0.751 | -0.6 | i
CCOC(=O)Cn1c(-c2ccccn2)nc2ccccc21 | / | -0.6 | / | / | / | -3.4 | -8.9 | 0.718 | -2.8 | /
Fc1ccc(-c2csc(-c3ccc(C4SCCS4)cc3)n2)cc1F | -2.1 | -0.3 | 6.4 | -31.2 | -0.6 | 2.3 | -1.3 | 0.66 | -19.8 | i
O=[N+]([O-])c1ccccc1/C=N/N1CCN(Cc2ccccc2)CC1 | ? | -0.9 | 1.9 | -0.8 | -1.3 | / | 3.1 | / | 9.8 | i
